# Sfp PPTase inh = blocks B. subtilis Sfp PPTase activity. Q9F4F7. Biochemical Sfp PPTase activity, qHTS. Potency, µM, for the others: max response, negative = inhibition, actives largely listed as inhibitors. actives 3.5% (n = 310,000). AID 1490; active = well fitted inhibition curve with a large enough effect; inconclusive = small, poorly fitted or top-dose-only effect, or another doubt; inactive = no such curve, though single readings can be large or run the other way;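 also: the enzyme is Sfp with the accession as filed and its product quenches rhodamine fluorescence; potency is read from the fitted curve at half-maximal effect; 0% = enzyme reaction without inhibitor and -100% = no enzyme wells; top concentration of the series not given in the record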
#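 After 15 min at room temperature with compound, 15 nM Sfp received 5 uM rhodamine-CoA plus 12.5 uM BHQ-2-ybbR (50 mM Hepes pH 7.6, 10 mM MgCl2). Rate came from the fluorescence difference over 30 min, ex 525/em 598 nm.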
# Menin MLL FP FL = displaces fluorescein MLL peptide from human menin; Fluorescence polarization, fluorescein-MLL peptide displacement from menin; 290,000 tested, under 10 active; FP activity change, % at 61.4 µM; inconclusive = falling polarisation curve, or a change in total fluorescence; inactive = total fluorescence flat and polarisation flat or rising; no compound was filed as active; the % refers to the polarisation; negative = inhibition;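 also: % of control where 0% means no effect; inhibitors lower the polarisation; unlabelled MLL peptide was the positive control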
# TRPV1 potentiator = potentiators of human vanilloid receptor 1 (TRPV1); potentiation, % at 8.33 µM; Q8NER1; TRPV1-expressing cells, Fluo-8 calcium influx, capsaicin EC20 potentiation; host cell line not named in the record; control for the full effect not named in the record; actives 0.02% (n = 320,000); AID 540277; active means potentiation above 80%; inconclusive means 30% to 80%; inactive means below 30%; also: 0% is about no effect
# Target sequence (Q8NER1 whole entry, looked up): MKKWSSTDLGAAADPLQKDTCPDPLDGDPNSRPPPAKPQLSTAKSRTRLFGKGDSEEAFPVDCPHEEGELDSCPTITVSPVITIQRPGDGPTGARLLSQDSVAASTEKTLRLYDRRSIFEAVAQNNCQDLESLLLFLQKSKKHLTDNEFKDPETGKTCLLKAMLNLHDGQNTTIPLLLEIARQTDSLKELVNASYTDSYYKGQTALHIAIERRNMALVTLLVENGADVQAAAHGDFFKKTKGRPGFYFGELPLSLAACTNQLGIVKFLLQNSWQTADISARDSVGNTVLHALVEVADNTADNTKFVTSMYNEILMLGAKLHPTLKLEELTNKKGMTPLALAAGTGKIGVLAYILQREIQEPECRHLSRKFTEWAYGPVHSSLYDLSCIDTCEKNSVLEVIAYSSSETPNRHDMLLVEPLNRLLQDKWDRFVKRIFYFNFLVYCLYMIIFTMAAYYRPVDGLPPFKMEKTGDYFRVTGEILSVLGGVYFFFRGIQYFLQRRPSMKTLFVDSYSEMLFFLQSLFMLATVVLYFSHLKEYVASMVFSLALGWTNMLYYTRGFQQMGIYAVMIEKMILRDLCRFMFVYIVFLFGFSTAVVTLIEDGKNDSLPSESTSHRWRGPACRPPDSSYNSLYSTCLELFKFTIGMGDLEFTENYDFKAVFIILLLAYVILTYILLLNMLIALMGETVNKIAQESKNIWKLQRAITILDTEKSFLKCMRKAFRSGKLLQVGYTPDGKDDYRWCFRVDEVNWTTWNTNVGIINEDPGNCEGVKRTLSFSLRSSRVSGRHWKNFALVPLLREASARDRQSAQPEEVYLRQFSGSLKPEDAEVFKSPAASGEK
#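 Cells expressing TRPV1 were dye-loaded with Fluo-8 and read kinetically: 10 s baseline, 3 min after compound (agonist portion), then 2 min after EC20 capsaicin (allosteric enhancer portion). Calcium-bound dye fluorescence at 480/520 nm.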
# CtBP-E1A inh = blocks the CtBP interaction with E1A; AlphaScreen GST-E1A/His-CtBP binding, 1536-well; active compounds read low; control for the full effect not named in the record; activity change, % (no concentration beside the values); actives 0.49% (n = 340,000); in the data active means activity change below about -65%; inconclusive means about -30% to -65%; inactive means above about -30%; also: % is scaled to controls: 0 for no effect and ±100 for the full control effect
#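 Homogeneous bead-based format: GST-tagged E1A captured on glutathione donor beads, His-tagged CtBP on nickel acceptor beads; compounds precede bead addition by 2 h at 37 °C.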
# ClpP mod = qHTS Assay for Activators of ClpP. actives 1.9% (n = 340,000). purified B. subtilis ClpP, FRET peptide cleavage, 20 min. AID 651965, 2013. Potency, µM (highest dose often 57.5 µM), inactives show at the highest dose activity change, negative = active. ATP-dependent Clp protease proteolytic subunit (Bacillus subtilis (strain 168)), P80244; active = well fitted falling curve with a large enough effect; inconclusive = small, poorly fitted or top-dose-only effect; inactive = no such curve, though single readings can be large or run the other way; also: potency is read from the fitted curve at half-maximal effect; the source files actives as falling curves though it sought activators and does not explain the sign; nearly all actives have a fitted effect of over 65% in size; many hits overshoot -100%
# Target sequence (P80244 whole entry, looked up): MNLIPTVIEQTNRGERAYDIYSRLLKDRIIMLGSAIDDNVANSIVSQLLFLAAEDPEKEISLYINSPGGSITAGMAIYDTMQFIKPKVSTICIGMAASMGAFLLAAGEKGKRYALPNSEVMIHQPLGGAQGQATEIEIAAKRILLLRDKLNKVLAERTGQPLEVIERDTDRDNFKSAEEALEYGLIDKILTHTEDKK
#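 Purified B. subtilis ClpP, 10 microg/mL final in Tris/HCl pH8 with KCl, BSA, glycerol and Tween-20, cleaved an Abz/nitrotyrosine-quenched decapeptide. Fluorescence (ex 320, em 430) was read at 0 and 20 min at room temperature. Delta was normalized to 5.8 microM ADEP and DMSO/no-enzyme controls.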
# gsp antag = antagonizes gsp, the McCune-Albright syndrome mutation; gsp-mutant cells, cAMP HTRF, 30 min; control for the full effect not named in the record; Potency, µM (doses to about 76.9 µM), for the others: at the top dose activity change, negative = inhibition, hits mostly inhibitors; actives 0.4% (n = 340,000); AID 624288; active = falling curve of any shape with a large fitted effect; inconclusive = falling curve, mostly with a smaller effect; inactive = flat or rising curve; cell line not stated here;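 also: intracellular cAMP measured with PDE inhibitor Ro 20-1724 present during compound exposure; potency is read from the fitted curve at half-maximal effect; % is scaled to controls: 0 for no effect and ±100 for the full control effect; nearly all actives have a fitted effect of over 65% in size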
#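 Measurement of cellular cAMP by homogeneous time-resolved fluorescence following a 30 min compound exposure at 37C. The PDE inhibitor […] was present throughout; the assay buffer was DPBS with 0.05% BSA and 0.005% Tween 20.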
# gsp ag = agonists of gsp mutant (McCune-Albright syndrome); gsp mutant cells, cAMP HTRF, 30 min; control for the full effect not named in the record; Potency, µM (titrated, usually from 76.9 µM), for inactives: at the highest dose activation (cAMP increase), usual class: activators; actives 0.13% (n = 340,000); AID 624287; active = well fitted activation curve with a large enough effect; inconclusive = small, poorly fitted or top-dose-only effect, or another doubt; inactive = no such curve, though single readings can be large or run the other way; cell line not stated here;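 also: phosphodiesterase inhibitor Ro 20-1724 added with compounds to block cAMP breakdown; potency is read from the fitted curve at half-maximal effect; nearly all actives have a fitted effect of over 60% in size; about a fifth of the inactives were tested at one dose only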
#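 Cells in DMEM/10% FBS with G418 were pretreated with compounds in DMSO plus […] (300 uM stock) for 30 min at 37C. cAMP was measured by HTRF (cAMP-d2 plus anti-cAMP antibody-K) after 30 min at room temperature.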
# Numbers without * were called inactive; u = inconclusive; x = not tested or not shown; & = joins results of further samples; [ ] = dose if it differs, or a comment.
compound	Sfp PPTase inh	Menin MLL FP FL	TRPV1 potentiator	CtBP-E1A inh	ClpP mod	gsp antag	gsp ag
O=c1[nH]nc(-c2ccc(NCCCO)c([N+](=O)[O-])c2)c2ccccc12	18%	10	15	-6	x	9%	-3%
COc1ccccc1CNC(=O)C(=O)NCC1CCCO1 (stereo not given)	-3%	4.9	-4	-1	-5.0%	3%	-4%
O=C(COC(=O)CNC(=O)c1ccccc1)NC(=O)NC1CCCCC1	x	x	x	-17	x	1%	-2%
Nn1cnnc1SCC(=O)N1CCc2ccccc2C1	x	x	-6	x	-2.9%	-7%	24%
O=C1N/C(=N\N=C\c2cccs2)SC1Cc1ccc(Cl)cc1Cl (stereo not given)	8%	7.0	-6	0	-16%	10%	-3%
Nc1n[nH]c(N)c1N=Nc1ccc(F)cc1	-4%	2.7	-12	x	1.8%	3%	-70%[inhibitor]
Cc1cc(NC(=O)CSc2c(C)[nH]c3ccccc23)no1	-7%	0.9	6	0	0.6%	-2%	-36%[inhibitor]
COc1cccc(/C=C/C(=O)N2CCN(c3n[nH]c(=O)[nH]c3=O)CC2)c1OC	21%	-1.8	7	4	1.3%	13%	13%[15.4 µM]
Cc1ccccc1/C=N/n1c(-c2ccccn2)n[nH]c1=S	35µM*	0.3	9	-2	-2.2%	-12%	7%[15.4 µM]
CCC(C)C(=O)Nc1nc2ccc(OC)cc2s1 (stereo not given)	4%	-1.8	-6	6	x	-4%	-33%[inhibitor]
Cn1c(=O)c2[nH]c(NCCCN3CCOCC3)nc2n(C)c1=O	7%	1.1	-14	9	-12%	8%	26%
CC(C)C(C(=O)NCc1ccco1)N(Cc1ccco1)C(=O)CNS(=O)(=O)c1ccccc1 (stereo not given)	18%	x	6	3	x	-5%	2%[15.4 µM]
Cc1cccc(N2C(=O)CS/C2=N\NC(=O)c2cccnc2)c1C	30%	0.7	3	x	x	7%	27%[15.4 µM]
Brc1cc2c(cc1/C=N/Nc1nc(N3CCOCC3)nc(N3CCOCC3)n1)OCO2	4%	-0.6	-6	0	-2.5%	-7%	-2%[15.4 µM]
N#Cc1ccc(COC(=O)c2ccccn2)cc1	-7%	-1.8	-1	x	x	x	x
Cc1cc(NC(=O)Cn2nc(-c3cccs3)ccc2=O)cc(C)c1Br	u	5.2	2	7	x	-12%	-4%
CCOC(=O)c1ccc(NC(=O)C2(c3ccc(Cl)cc3)CCCC2)cc1	-4%	0.8	x	10	0.5%	-8%	-8%
Cc1ccc(C(=O)OCc2nc3ccccc3s2)o1	x	x	-26	7	x	10%	-3%[15.4 µM]
COCCNc1nc2nonc2nc1NC(C)c1ccccc1Cl (stereo not given)	2%	1.7	-1	x	-2.2%	-5%	-205%[inhibitor]
CC(=O)Nc1cc(C(=O)N2CCc3ccccc3C2)ccc1Sc1ccc(F)cc1	-18%	-2.7	-15	0	2.5%	u	22%
CC(C)NS(=O)(=O)c1ccc(OCC(=O)Nc2ccc3c(c2)OCO3)cc1	0%	-4.5	-1	-9	x	1%	1%[15.4 µM]
Cc1c(Cl)cccc1N1C(=O)c2ccccc2C1=O	9%	24	-2	5	-0.2%	-2%	u
O=C(NC1CCCCCCC1)C1CCN(S(=O)(=O)N2CCCC2)CC1	3%	3.3	21	5	-0.7%	8%	-66%[inhibitor]
O=C1NC(Cc2ccc(O)cc2)c2nc3cc(Cl)ccc3c(=O)n2-c2cc3ccccc3cc21 (stereo not given)	x	x	x	21	-8.7%	x	-106%[inhibitor]
CC(C)(CO)C(O)C(=O)NCCC#N (stereo not given)	-6%	2.2	7	0	-0.3%	10%	-55%[inhibitor]
CCC(C)(C)NC(=O)C(c1ccc(OC)cc1)N(C(=O)CCC(=O)Nc1cc(C)on1)c1ccc2c(c1)OCCO2 (stereo not given)	22%	0.7	-3	-5	0.0%	-13%	-4%[15.4 µM]
Cc1cccc(-n2cc(-c3ccc([N+](=O)[O-])cc3)[nH]c2=S)c1	-10%	6.8	-9	10	0.6%	-18%	3%[15.4 µM]
COC(=O)/C=C/c1c(C)[nH]c(=O)[nH]c1=O	17%	8.2	9	4	x	0%	7%[15.4 µM]
CC(C)N(Cc1ccccc1)C(=S)Nc1cccnc1	17%	-3.0	-8	3	x	7%	12%[15.4 µM]
CCOC(=O)Cn1cncc1-c1ccc([N+](=O)[O-])cc1	-70%	6.1	11	-5	-1.5%	8%	-9%
COc1ccc2c(c1)c1ncn(Cc3ccccn3)c(=O)c1n2C	12%	-0.8	10	x	4.4%	2%	-6%
CCOC(=O)C1=NNC2C(=O)N(C3CCCCC3)C(=O)C12 (stereo not given)	10%	0.8	-2	-10	-0.9%	5%	u
COc1ccc(CNC(=O)COC(=O)CCC2CCCCC2)cc1	7%	2.4	-6	12	-1.1%	6%	15%[15.4 µM]
Cc1ccc(NC(=S)N2CCN(C)CC2)c(C)c1	9%	6.1	-5	3	-1.3%	12%	-6%
CC(NS(=O)(=O)/C=C/c1ccccc1)C(=O)NCCc1ccc(S(N)(=O)=O)cc1 (stereo not given)	25%	2.2	3	-16	x	-1%	20%
Cc1ccc(C(=O)C2C(c3ccc(-c4ccccc4[N+](=O)[O-])o3)NC(=O)NC2(O)C(F)(F)F)cc1 (stereo not given)	x	x	x	-12	0.9%	-19%	-7%
O=S(=O)(Nc1ccc(-c2cn3ccccc3n2)cc1)c1ccccc1	-3%	2.9	10	u	-28%	-7%	26%
Cc1ccc(N2C(=O)Nc3ccc(Br)cc3C2(O)C(=O)NCCCN(C)C)cc1C (stereo not given)	13%	0.2	7	4	-0.2%	-8%	21%
Cc1c(C)n(CCCN(C)C)c2ncnc(NCc3ccccc3)c12	1%	u	15	-14	x	0%	-35%[inhibitor][15.4 µM]
Cc1nc2cncc(Br)c2n1C	18%	0.7	-1	-1	-5.3%	13%	u
CC(=O)Nc1ccc(NC(=O)COC(=O)CCNS(=O)(=O)c2c(Cl)cccc2Cl)cc1	x	x	-12	2	1.3%	4%	-14%
CCOC(=O)N1CCN(c2c(NCCOC)c(=O)c2=O)CC1	4%	6.8	0	-25	-2.5%	-7%	6%
O=C(NCC1CCCO1)c1ccc(N2CCCCC2)c([N+](=O)[O-])c1 (stereo not given)	4%	0.6	-13	-2	-1.0%	-12%	u
O=C(Nc1cccc(Br)c1)c1ccc2c(c1)SC1=NS(=O)(=O)CCN12	x	x	-6	x	-11%	-21%	-31%
Brc1ccc(-c2c(-c3ccsc3)sc3ccccc23)cn1	x	x	-8	8	u	-12%	28%
CC(C)Oc1ccc(C(=O)NCc2ccco2)cc1	-2%	2.9	-3	-2	0.8%	-4%	13%
O=S(=O)(Nc1ncccn1)c1ccc(Nc2ncnc3ccccc23)cc1	23%	0.2	-3	3	-2.8%	14%	u
CN1CCN(C(=O)C(=O)c2cn(CC(=O)N3CCCC3)c3ccccc23)CC1	14%	-0.2	4	8	0.7%	-10%	u
Cc1ccc(C(=O)N[C@H](C(=O)NC2CCCCC2)C(C)C)cc1	x	x	x	1	-3.4%	14%	-1%
Cc1cc(SCC(=O)N2c3ccccc3NC(=O)CC2C)nc2ccccc12 (stereo not given)	x	x	x	-6	-3.5%	x	-56%[inhibitor]

# New compounds follow
compound	Sfp PPTase inh	Menin MLL FP FL	TRPV1 potentiator	CtBP-E1A inh	ClpP mod	gsp antag	gsp ag
CC(C)NC(=O)c1onc(CSc2nc3ccccc3[nH]2)c1C(=O)NC(C)C	11%	0.4	-11	-2	-1.4%	9%	x
CCc1nnc(NC(=O)c2ncc(Cl)c(Cl)c2Cl)s1	6%	x	8	-4	-3.7%	-5%	-62%[inhibitor]
COc1ccc(OC)c(S(=O)(=O)Nc2ccc(F)cc2)c1	-8%	2.5	1	0	-0.6%	-14%	-40%[inhibitor]
COc1ccc(S(=O)(=O)N2CCCCC2)cc1NC(=O)c1ccc([N+](=O)[O-])o1	15%	0.1	3	-9	x	5%	-21%
CCC1CN(C(=O)NCc2ccc(F)cc2)c2cc(Cl)ccc2O1 (stereo not given)	8%	-11	-10	19	-4.5%&-5.7%	-8%	-1%[15.4 µM]
COc1ccc(CN(C(=O)c2cnccn2)C(C(=O)Nc2ccc(F)cc2)c2ccccc2)cc1 (stereo not given)	7%	2.7	3	-2	1.0%	u	-61%[inhibitor]
COc1ccccc1C(=O)OCC(=O)Nc1cccc(S(=O)(=O)NC2=NCCCCC2)c1	x	x	x	-3	-4.6%	-1%	1%
O=C(c1ccc(OC2CCN(Cc3ccccn3)CC2)cc1)N1CCC[C@H]1CO	-2%	x	26	-7	-3.7%	9%	u
O=C(NCCc1ccc(F)cc1)C(=O)NCC1CCCN1S(=O)(=O)c1ccccc1 (stereo not given)	x	x	-2	-3	-1.2%	3%	-7%[15.4 µM]
CC(C)Cn1c(N)c(C(=O)COC(=O)c2ccc(Br)cc2)c(=O)n(C)c1=O	x	x	x	-4	0.1%	35µM*	u
CC(C(=O)Oc1ccc2c(c1)OCO2)N1C(=O)c2ccccc2C1=O (stereo not given)	0%	0.7	-22	x	x	x	x
COc1ccc(CC(=O)Nc2c3c(nn2-c2cccc(Cl)c2)CS(=O)C3)cc1 (stereo not given)	-6%	0.6	18	-2	1.8%	8%	2%
COc1cccc(CNC(=O)CCCc2c[nH]c3ccccc23)c1	14%	2.8	-7	-4	-6.1%	-13%	0%
COc1ccc2c(c1)c(=Cc1ccc(N(C)C)cc1)c1cc(-c3ccccc3)[n+](C)n12	x	x	x	-1	2.2%	u	-2%
Cc1ccc(C)c(N(C)C(=O)c2ccc3c(=O)n4c(nc3c2)CCCCC4)c1	10%	-3.0	5	x	-1.3%	-6%	-2%
CCc1ccccc1OCCCOc1ccc(OC)cc1	3%	3.6	10	49	-1.5%	-9%	-12%
CN(C)CCCN(C(=O)c1ccc(S(=O)(=O)N2CCCCCC2)cc1)c1nc2cc3c(cc2s1)OCO3	x	x	x	-14	-0.4%	x	-48%[inhibitor]
COc1cccc(CNc2ccc(N3CCC(C)CC3)cc2)c1OC	10µM*	-0.6	26	-70*	-0.3%	-1%	27%
COc1ccc(OC)c(C2C3=C(COC3=O)Nc3cc4c(cc32)OCO4)c1 (stereo not given)	29%	-3.0	-1	5	u	22%	-2%

# Source: PubChem BioAssay
